MT1-MMP act inh = blockers of MT1-MMP proenzyme processing, primary screen, HT1080 RFP-PRO-GFP cells, GFP/RFP fluorescence | 360,000 compounds, 0.061% hits | GFP/RFP ratio fluorescence, overnight; percent of plate control window, DMSO zero | Matrix metalloproteinase-14 (Homo sapiens), P50281 | GFP/RFP ratio change, % at 20 µM;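 active = GFP/RFP ratio change of at least 30% with cell ATP level not reduced by more than half and red fluorescence within 50% of control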; note: strong numbers were not always called active
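Material – HT1080 RFP-PRO-GFP cells · Control set – DMSO wells and RFP-L50D-GFP cells · Incubation – overnight cell settling, then overnight compound exposure, 37 °C, 5% CO2 · Compound dosing – single-point 20 µM compound, 1% DMSO · Read-out – GFP/RFP fluorescence ratio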
Yeast UUG start = modulators of yeast start codon fidelity, primary screen, whole organism, S. cerevisiae, single point, plate reader. activity score, % at 18.7 µM. S. cerevisiae UUG-firefly luciferase reporter, luminescence/redox ratio. 350,000 compounds, 0.13% hits;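 active = replicate mean at a twofold rise or more, about +100% in these data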;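 note: firefly luciferase made from a UUG start codon reports start codon fidelity; reporter light over untreated wells divided by growth signal over untreated wells; some hits fall short of that in this replicate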
MT1-MMP act inh RFP = recorded beside MT1-MMP act inh, whose call it bears; RFP signal change, %; measured here: RFP expression control read;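 0 = vehicle wells; hits needed this value within 50% of zero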
* hit, by the source's call; & = joins results of further samples. These rows are one share of the data; the hit share may differ from the screen's.

Sample of the layout (6 entries):
SMILES	MT1-MMP act inh	MT1-MMP act inh RFP	Yeast UUG start
Cn1nc(C(=O)OCC(=O)c2ccc(Br)cc2)c2ccccc2c1=O	0	4	-14
Cc1ccc(OC(C)C(=O)N2CCN(c3ccccn3)CC2)cc1 (stereo not given)	-3	2	-9
CC(=O)c1ccc(-c2ccc(C(=O)Nc3nc(C)c(C(C)=O)s3)o2)cc1	7	0	11
OCC1OC(Oc2c(Br)cc(Br)cc2Br)C(O)C(O)C1O (stereo not given)	4	4	-13
O=C(NCc1ccccc1)c1ccccc1	1	5	10
O=c1n2c(c(O)n1C1CCCCC1)C(c1ccccc1)=Nc1ccccc1C2	4	5	-9

Results (from the top)
SMILES	MT1-MMP act inh	MT1-MMP act inh RFP	Yeast UUG start
Cn1nc(C(=O)OCC(=O)c2ccc(Br)cc2)c2ccccc2c1=O	0	4	-14
Cc1ccc(OC(C)C(=O)N2CCN(c3ccccn3)CC2)cc1 (stereo not given)	-3	2	-9
CC(=O)c1ccc(-c2ccc(C(=O)Nc3nc(C)c(C(C)=O)s3)o2)cc1	7	0	11
OCC1OC(Oc2c(Br)cc(Br)cc2Br)C(O)C(O)C1O (stereo not given)	4	4	-13
O=C(NCc1ccccc1)c1ccccc1	1	5	10
O=c1n2c(c(O)n1C1CCCCC1)C(c1ccccc1)=Nc1ccccc1C2	4	5	-9
CC1(C)CCCC2(C)C1CCC1(C)OC(=O)CCC12 (stereo not given)	2	0	0
CCCn1c(N)c(N(CCOC)C(=O)CSCC(=O)Nc2ccc(C)cc2)c(=O)[nH]c1=O	-3	0	-12
COc1ccc(OC(=O)OCc2ccccc2)cc1	1	1	-14
O=C(NCc1ccc(F)cc1)c1cc(S(=O)(=O)N2CCCCC2)ccc1N1CCOCC1	2	1	-12
O=S(=O)(c1cccc(C(F)(F)F)c1)N1CCN(S(=O)(=O)c2ccc3c(c2)OCCO3)CC1	2	-3	-4
Cc1cc(C)cc(Cn2c3ccc(NC(=S)NC4CCCCC4)cc3c(=O)n2C)c1	3	0	-24

An excerpt from above in order of molar mass, rising.
SMILES	MT1-MMP act inh	MT1-MMP act inh RFP	Yeast UUG start
O=C(NCc1ccccc1)c1ccccc1	1	5	10
COc1ccc(OC(=O)OCc2ccccc2)cc1	1	1	-14
Cc1ccc(OC(C)C(=O)N2CCN(c3ccccn3)CC2)cc1 (stereo not given)	-3	2	-9
O=c1n2c(c(O)n1C1CCCCC1)C(c1ccccc1)=Nc1ccccc1C2	4	5	-9
O=S(=O)(c1cccc(C(F)(F)F)c1)N1CCN(S(=O)(=O)c2ccc3c(c2)OCCO3)CC1	2	-3	-4
OCC1OC(Oc2c(Br)cc(Br)cc2Br)C(O)C(O)C1O (stereo not given)	4	4	-13

The list continues.
SMILES	MT1-MMP act inh	MT1-MMP act inh RFP	Yeast UUG start
CCN(Cc1ccc2c(c1)OCCO2)C(=O)CN1C(=O)NC2(CCCCC2)C1=O	-1	-3	-2
Cc1noc(C)c1S(=O)(=O)N(C)C[C@H]1OCc2cnnn2CCCC(=O)N([C@H](C)CO)C[C@H]1C	-3	0	-7&-6
CC(C(=O)Nc1ccc([N+](=O)[O-])cc1Cl)N1CCN(S(=O)(=O)c2cccs2)CC1 (stereo not given)	-3	-4	-7
CCOC(=O)c1c(C)[nH]c(C)c1C(=O)COC(=O)c1ccc(S(=O)(=O)C(F)F)cc1	5	2	1
Cc1ccsc1C(=O)OCC(=O)Nc1cccc(F)c1	7	1	-8
Cc1cc(=O)oc2cc(NC(=O)C(C)N3C(=O)C4CCCCC4C3=O)ccc12 (stereo not given)	-2	2	-9
O=S(=O)(c1ccc(SCc2c(F)cccc2Cl)nc1)N1CCCC1	1	-4	-11
Clc1cccc(CNc2ccn3nc(-c4cccc(OCc5ccccc5)c4)cc3n2)c1	10	-4	-12
Nc1c(C(=O)Nc2ccccc2)sc2nc(N3CCOCC3)c3c(c12)CCCC3	9	3	-14
CC(C)(C)S(=O)N1Cc2cc(C(=O)NCc3ccc(Oc4ccccc4)cc3)nc(-c3cccc(-c4cc5ccccc5o4)c3)c2[C@@H]1CCO (stereo not given in full)	2	2	-9
O=C(CSc1nc2nn(-c3ccccc3)c(=O)c-2c2n1CCCCC2)c1ccc(O)c(O)c1	7	0	-13
C[C@H]1Cn2cnc(C(=O)NCc3ccc(CNC(=O)OC(C)(C)C)cc3)c2C(=O)N1	6	12	-9
CCCC(NCC(=O)Nc1cc(S(=O)(=O)N2CCOCC2)ccc1OC)c1ccccc1 (stereo not given)	6	-6	-17
COc1ccc(NC(=O)CN(C)C(=O)C2CC(=O)N(c3cccc4ccccc34)C2)cc1 (stereo not given)	0	3	-5
CCCNC(=O)C1(C)CCN(Cc2csc(-c3ccc(Cl)cc3)n2)C1 (stereo not given)	-10	-8	-14
COc1ccccc1OCc1ccc(C(=O)NCC2CCCO2)cc1 (stereo not given)	1	0	-18
Cc1ccc(S(=O)(=O)NN=CC2(c3ccccc3)CC2)cc1	1	4	2
CCOc1ccc(Cl)cc1-c1cc(C(=O)Nc2cc(OC)ccc2OC)[nH]n1	-4	-1	-1
CC(C)(C)OC(=O)N1CCCC(C(=O)Nc2ccc(C(=O)NCc3ccccc3)cc2)C1 (stereo not given)	5	-1	7
Cc1ccccc1NC(=O)Cc1nc(COC(=O)c2ccc(C(F)(F)F)cc2)cs1	-1	4	-31
COc1ccc(NC(=O)COC(=O)c2ccc(OC)c(S(=O)(=O)N3CCCC3)c2)cc1OC	-1	-1	15
Cc1c(Cl)cccc1NC(=O)COC(=O)c1ccc(CN2CCCC2=O)cc1	6	2	-17
CCCNC(=O)C1(C)CCN(Cc2cc(C(F)(F)F)ccc2Cl)C1 (stereo not given)	4	7	-17
CC(=O)c1ccc(NC(=O)COC(=O)c2c[nH]c3ccccc23)cc1	2	1	-24
CC1(Cc2ccccc2C#N)C(=O)Nc2ccc(-c3ccccc3)cc21 (stereo not given)	1	-5	18
Cc1cc(C)cc(NC(=O)COC(=O)c2ccc3c(c2)OCCO3)c1	3	7	0
Cc1nn(Cc2ccccc2)c(C)c1C(=O)N1CCN(S(=O)(=O)/C=C/c2ccccc2)CC1	1	-6	8
Cc1ccc2c(=O)n3c(nc2c1)C(Cc1ccccc1)NC(=O)c1cccnc1-3 (stereo not given)	-2	1	9
Cc1cc(C)c(C)c(S(=O)(=O)N2CCC(C(=O)NCCCN3CCCC3=O)CC2)c1C	2	-1	4
COc1cc(C(=O)NCC(=O)NCC(c2ccco2)N2CCCCC2)cc(OC)c1OC (stereo not given)	1	2	1
Cc1ccc(NC(=O)COC(=O)Cc2c[nH]c3ccccc23)cc1C	5	3	-10
CCN(CC)C(=O)[C@H]1CC(CC(=O)NCCCOC)C(=O)N2CCc3c([nH]c4ccccc34)[C@]12C (stereo not given in full)	3	9	-16
Cn1c(=O)c2[nH]c(NN=Cc3ccccc3)nc2n(C)c1=O	7	1	-16
CN(CC(=O)Nc1ccc(F)cc1)C(=O)c1ccc(OCc2ccccc2)cc1	23	-8	9
CCOCc1c(C(=O)Nc2ccccc2N2CCN(C)CC2)oc2ccccc12	-3	-6	6
Cc1cc(C)c(C(=O)c2ccccc2C(=O)O)c(C)c1	8	5	-10

One compound at a time, as listed above. Screens in order: MT1-MMP act inh | MT1-MMP act inh RFP | Yeast UUG start
Cc1ccc(NC(=O)COC(=O)Cc2c[nH]c3ccccc23)cc1C is entered as 5 | 3 | -10
Cn1c(=O)c2[nH]c(NN=Cc3ccccc3)nc2n(C)c1=O is entered as 7 | 1 | -16
Cc1cc(C)cc(NC(=O)COC(=O)c2ccc3c(c2)OCCO3)c1 is entered as 3 | 7 | 0

The list continues:
SMILES	MT1-MMP act inh	MT1-MMP act inh RFP	Yeast UUG start
CN(C)C(=O)c1cccc(-c2cccc(-c3nc(C(=O)NCc4ccccc4)cc4c3[C@H](CCO)N(S(=O)C(C)(C)C)C4)c2)c1 (stereo not given in full)	-1	6	20
CC(C)(C)[C@@H]1COC(=O)[C@H](Cc2ccc(F)cc2)C/C=C\C[C@@H](CC(=O)N(CCO)Cc2ccccc2)C(=O)N1	0	-5	2
Cc1nnc(SC(C)C(=O)c2c[nH]c3ccccc23)n1C1CC1 (stereo not given)	-3	-2	2
COc1cc(OC)cc(C(=O)OCC(=O)NC(c2ccccc2)c2ccccc2)c1	1	1	1
COc1ccc(OC)c(S(=O)(=O)NCC(=O)NC2CCCCCC2)c1	-1	0	-3
COc1ccc(CCN(C)C(=O)c2cccc(S(=O)(=O)N3CCN(c4ccc(F)cc4)CC3)c2)cc1OC	5	-35	0
COCCNC(=O)C1(C)CCCN(Cc2ccc(Cl)c(Cl)c2)C1 (stereo not given)	-1	2	-35
CC(C)(C)S(=O)(=O)N1C[C@@H]2C(=CC[C@H]3C(=O)N(c4ccccc4)C(=O)[C@@H]23)[C@@H]1CCO	-3	5	-5
O=C(COC(=O)/C=C/c1cccc(C(F)(F)F)c1)Nc1ccc(Cl)cn1	0	4	-16
CC1(C(=O)NS(=O)(=O)c2ccc(Cl)cc2)CCN1C(=O)c1ccccc1 (stereo not given)	-1	0	-19
CCCCCCN1C[C@@H](n2cc(COC(=O)c3ccccc3)nn2)[C@H](O)C[C@@H]1c1ccccc1	5	6	-18
O=C(COc1ccc(Cl)cc1Cl)N1CCNC1=O	-2	2	-23
CC(=O)Nc1ccc(C(=O)COC(=O)c2cccs2)c(F)c1	4	1	-38
CCNC(=O)C1CCCN(C(=O)c2cnc3ccccc3n2)CC1 (stereo not given)	0	-1	-9
CCOC(=O)c1c(NC(C)=O)sc2c1C1CCN2CC1	8	5	5
CN1CCN(S(=O)(=O)c2ccc(N3CCN(c4ccccc4Cl)CC3)nc2)CC1	8	-3	-9
CSCCC(NC(=O)c1ccccc1Cl)C(=O)NCCOc1ccc(C)cc1 (stereo not given)	0	-3	-11
COc1ccc(OC(=O)c2cccc(S(=O)(=O)N3CC(C)OC(C)C3)c2)cc1 (stereo not given)	2	-7	-12
Cc1ccc(S(=O)(=O)N2CCOCC2)cc1NC(=O)COc1cccc(-n2cnnn2)c1	2	0	-14
Cc1ccnc(NC(=O)C(Cc2ccccc2)NC(=O)c2ccccc2)c1 (stereo not given)	-3	2	-10
CCOC(=O)C1=C(C)N=c2sc(=Cc3ccc(OCC(=O)O)cc3)c(=O)n2C1c1ccc(Cl)cc1 (stereo not given)	-7	-12	-12
COc1ccc(COCC(O)CN2CCN(S(=O)(=O)c3c(F)cccc3F)CC2)cc1OC (stereo not given)	3	-1	-12
O=C(CCN1CCN(c2ccccc2)CC1)NNC(=O)Cc1ccccc1Cl	3	3	-14
CC(C)(C)CNC(=O)C1(C)CCN1C(=O)Cc1ccc(C(C)(C)C)cc1 (stereo not given)	7	-5	-8
NC(=O)Nc1ccc(C(=O)OCC(=O)Nc2cccc(S(=O)(=O)NC3=NCCC3)c2)cc1	-4	3	-19
CNC(=O)C[C@H]1C(=O)N(C2CCCCC2)C[C@@H]1CSC	-1	0	-12
COc1c(C)cc(C(O)c2ncc(-c3ccccc3)[nH]2)cc1C (stereo not given)	6	0	-7
O=C(NCCc1ccccc1)c1ccccc1C(F)(F)F	-1	1	-15
CC1CCCCC1NC(=O)COc1ncnc2sccc12 (stereo not given)	-1	1	-17
O=C(Nc1ccc(S(=O)(=O)N2CCCC2)cc1)C1CC(=O)N(CCc2ccc(F)cc2)C1 (stereo not given)	2	-1	-9
C=CCOc1ccc2c(c1)CCC1C2CCC2(C)C(O)C(O)CC12 (stereo not given)	5	-2	-1
COc1ccc(CCNC(=O)c2ccc(Cl)c(S(=O)(=O)N3CCCCCC3)c2)cc1	10	-25	10
CC(C)Oc1cccc(NC(=O)C2(C)CCCN2C(=O)C(C)C)c1 (stereo not given)	0	3	-17
CCN(CC(=O)Nc1ccccc1C(F)(F)F)C(=O)C1CCN(C(=O)Nc2ccccc2)CC1	-2	0	8
Cc1noc(C)c1C(=O)OCC(=O)NCCc1ccccc1	-2	-2	-15
CCn1c(=S)[nH]c2c(=O)n(C)c(=O)n(C)c21	-6	-2	-3
Cc1ccccc1OCCC(=O)OCC(=O)NNC(=O)c1cccs1	0	2	-15
O=C(NCc1ccccc1Cl)c1ccc2nc([C@H]3C[C@H](O)[C@@H](CO)O3)[nH]c2c1	4	3	-20
CCN(CC)C(=O)Cn1cc([N+](=O)[O-])cc1[N+](=O)[O-]	2	1	2
Cc1c(N)cccc1Cl	1	6	-22
CC1(C(=O)NS(=O)(=O)c2cccs2)CCN1C(=O)C1CC1 (stereo not given)	-4	1	-22
COc1ccc(Br)c(C(=O)Nc2cccc(S(=O)(=O)N3CCOCC3)c2)c1	1	2	-5
COc1cc2c(cc1OC)CN1CCc3cc(OC)c(OC)cc3C1C2 (stereo not given)	3	0	-6

Bioassay records as filed in PubChem.
